High-throughput results (PubChem BioAssay)
DT40 TDP1 CPT: growth inhibition of DT40 Tdp1-/-;hTDP1 cells with camptothecin (screen for TDP1 inhibitors) | chicken DT40 Tdp1-/-;hTDP1 cells + 20 nM CPT, ATP luminescence, 48 h | Potency, µM (doses to about 46.2 µM), for inactives: at the top dose activity change, negative = growth inhibition, hits mostly inhibitors | 420,000 compounds, 12% hits; note: nearly all actives have a fitted effect of over 55% in size
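Cell growth measured by CellTiter-Glo luminescence after a minimum 48 h, 37 C compound exposure with 20 nM CPT in Tdp1-knockout DT40 cells stably expressing hTDP1, seeded 400/well; qHTS titration format.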
FEN1 inhibitor: inhibitors of human flap endonuclease 1 | AID 588795 | P39748 | 390,000 compounds, 0.35% hits | Potency, µM (highest dose often 114 µM), for the others: top-dose activity change, negative = inhibition, most hits filed as inhibitors | Recombinant FEN1 flap cleavage, fluorescence, 15 min; note: nearly all actives have a fitted effect of over 65% in size
Target sequence (P39748 whole entry, looked up): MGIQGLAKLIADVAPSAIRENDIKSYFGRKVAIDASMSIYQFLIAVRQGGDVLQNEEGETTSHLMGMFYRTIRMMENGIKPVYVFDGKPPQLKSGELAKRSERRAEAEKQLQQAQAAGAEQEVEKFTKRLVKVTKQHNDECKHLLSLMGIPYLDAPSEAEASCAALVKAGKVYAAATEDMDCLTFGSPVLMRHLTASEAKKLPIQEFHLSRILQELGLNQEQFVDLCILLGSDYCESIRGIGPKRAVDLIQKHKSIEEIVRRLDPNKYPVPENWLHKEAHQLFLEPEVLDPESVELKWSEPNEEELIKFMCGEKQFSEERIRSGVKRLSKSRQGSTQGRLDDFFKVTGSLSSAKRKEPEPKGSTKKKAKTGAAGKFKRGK
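Potency values derive from four-parameter Hill fits of normalized qHTS data. The reaction used 10 nM FEN1 preincubated 15 min at room temperature with compound, then 50 nM DNA substrate, read at 0 and 15 min.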
Numbers without * were called inactive; ? = inconclusive; & = joins results of further samples. Calls come from the whole dose curve; as a rule, active = well fitted curve in the direction sought with a large enough effect; inconclusive = small, poorly fitted or top-dose-only effect, or another doubt; inactive = no such curve, though single readings can be large; an effect the other way counts as inactive or inconclusive. % is set by controls: 0 for no effect and ±100 for the full control effect; potency is the fitted concentration of half-maximal effect.

SMILES	DT40 TDP1 CPT	FEN1 inhibitor
CN1CCN(NC(=O)c2ccc(Br)c(S(=O)(=O)N3CCOCC3)c2)CC1	-1.4%	-1.3%
O=C(Cc1nc(=O)c2ccccc2s1)Nc1ccccc1	-7.9%	-0.6%
CC(=O)NCC(=O)OCC(=O)N1c2ccccc2Sc2ccccc21	-7.3%	0.3%
Cc1nnc(Nc2ccc(C(=O)O)cc2)[nH]c1=O	15.5%	15.7%
CN(C)c1ccc(-c2nc3n(n2)C(c2cccnc2)C2=C(CC(C)(C)CC2=O)N3)cc1 (stereo not given)	-7.5%	2.9%
O=S(=O)(c1ccccc1)N1N=C(c2ccc(Cl)cc2)CC1c1ccco1 (stereo not given)	?	-16.1%
Cc1ccc2c(c1)CN1CN2Cc2cc(C)ccc21	-20.9%	7.1%
COc1ccc(CNC(=O)CCc2c(C)nc3ncnn3c2C)cc1	5.8%	-0.3%
CCOC(=O)c1c(S(=O)(=O)NCCc2ccccc2)c(C)n(C)c1C	-4.4%	-2.8%
COc1ccc(/C=N/N=C/c2c[nH]c(=O)c(C#N)c2Nc2ccccc2)cc1	?	0.7%
CCN(c1ccc(OCC(=O)OCC(=O)Nc2ccc(F)c(F)c2F)cc1)S(=O)(=O)c1ccccc1	14.3%	-11.0%
COc1ccc(-c2nc(CS(=O)CC(=O)NCc3cccnc3)c(C)o2)cc1OC (stereo not given)	-7.5%	2.2%
COc1cccc(CN2C(=O)CCC2(C)C(=O)NCCc2ccc(OC)c(OC)c2)c1 (stereo not given)	-1.9%	4.2%
COc1ccc(C(CNC(=O)c2ccc(OCC3CCCO3)cc2)N2CCOCC2)cc1 (stereo not given)	-17.8%	-9.8%
CCOc1ccc(C(=O)OCC(=O)Nc2nc(OC)cc(OC)n2)cc1OCC	-7.0%	-13.7%
CCOC(=O)C1=C(c2cccc(Oc3ccccc3)c2)NC(=S)NC1C (stereo not given)	?	-18.1%
Cc1noc(C)c1COC(=O)c1cccc(S(=O)(=O)N2c3ccccc3CC2C)c1 (stereo not given)	?	0.6%
OC(CN1CCN(c2ccccc2)CC1)c1c[nH]c2ccccc12 (stereo not given)	?	2.3%
CC(C)(C)NC(=O)C(c1ccco1)N(Cc1ccc2c(c1)OCO2)C(=O)c1snc(C(N)=O)c1N (stereo not given)	4.8%	-2.1%
COc1ccc(N(C(=O)c2ccc(Br)o2)C2C=CS(=O)(=O)C2)c(OC)c1 (stereo not given)	?	4.8%
COc1cccc(C(=O)OCC(=O)Nc2nnc(-c3ccccc3)o2)c1	-6.8%	1.7%
COc1ccc(NC(=O)c2cc([N+](=O)[O-])nn2Cc2ccccc2)c(C)c1	0.0%	-5.2%
CN(C)C=NC(=O)c1ccc(N2CCN(c3ncc(C(F)(F)F)cc3Cl)CC2)cc1	?	1.3%
FC(F)(F)c1ccc(CN2CCCCCC2)cc1	0.3%	-8.7%
C/C(N=Nc1nc2ccccc2s1)=N\Nc1ccccc1O	9.2µM*	-3.0%
CC(C)c1ccc(C2=C(O)c3ccccc3C(=O)C2=O)cc1	?	-3.1%
CN1CCN(/N=C/c2cccc(Cl)c2Cl)CC1	-6.1%	16.6%
Cc1ccc(C)c(S(=O)(=O)NCc2ccc(C(=O)N3CCCCCC3)cc2)c1	?	12.3%
Cc1ccc2cc(CCNC(=O)C(C)C)c(=O)[nH]c2c1C	14.5%	-14.4%
COc1ccc(CCNC(=O)C(=O)NCC2OCCN2S(=O)(=O)c2ccc3c(c2)OCCO3)cc1 (stereo not given)	20.6µM*	0.7%
CC(=O)N1CCN(C2=NC(=O)/C(=C/c3ccc(OS(=O)(=O)c4ccccc4)cc3)S2)CC1	20.6µM*	-12.7%
CCCn1cnnc1CNC(=O)C1CCC(=O)N(CCc2ccc(OC)cc2)C1 (stereo not given)	1.2%	-8.4%
CCCCNC(=O)Cn1c2c(c(-c3ccccc3Cl)cc1=O)CCC2	?	-3.2%
CCN(CC)CCNC(=O)Cn1nc(-c2ccc(C)cc2)ccc1=O	-21.1%	7.8%
Cc1cccc(NC(=O)CCC2CCN(C(=O)C3CC=CCC3)CC2)c1 (stereo not given)	11.6µM*	1.2%
CCOC(=O)c1cc2n(c1N)-c1ccccc1C2=O	-15.1%	4.8%
Cc1ccc(S(=O)(=O)N(C)CC(=O)NCCCc2ccccc2)cc1	-25.8%	2.2%
CCCC(=O)N1N=C(c2ccccc2)CC1c1cn(C)c2ccccc12 (stereo not given)	?	-20.5%
CCOc1ccc(N(CC(=O)NCCc2ccccc2)S(=O)(=O)c2ccccc2)cc1	-8.7%	-8.0%
CSCC(=O)NS(=O)(=O)c1ccc(C)cc1	-1.9%	-11.0%
CCS(=O)(=O)N1Cc2ccccc2CC1C(=O)NCCc1c[nH]c2ccccc12 (stereo not given)	-0.1%	-8.4%
COc1cccc(-n2nc(C(=O)O)c3ccccc3c2=O)c1	-12.4%	0.4%
COc1ccc(CC(=O)NCc2nnc(SCc3ccc(C)cc3)n2C)cc1	18.0%	-0.8%
Cc1noc2ncnc(Sc3ccc(Br)cc3)c12	2.59µM*	1.0%
O=C(OCC(=O)N1CCCCCC1)c1cccs1	-18.4%	-3.1%
O=C(COC(=O)CCc1c[nH]c(=O)[nH]1)Nc1ccccc1	-16.6%	-3.5%
O=C(O)c1ccc(OCC(O)Cn2c3ccccc3c3ccccc32)cc1 (stereo not given)	-7.1%	10.1%
O=C(CSc1ncccn1)N1CCC(Cc2ccccc2)CC1	?	4.8%

Entries from the list above that have two or more sulfur atoms (2):
SMILES	DT40 TDP1 CPT	FEN1 inhibitor
CC(=O)N1CCN(C2=NC(=O)/C(=C/c3ccc(OS(=O)(=O)c4ccccc4)cc3)S2)CC1	20.6µM*	-12.7%
CSCC(=O)NS(=O)(=O)c1ccc(C)cc1	-1.9%	-11.0%

The listing picks up; the 2 compounds before the break are reprinted first.
SMILES	DT40 TDP1 CPT	FEN1 inhibitor
O=C(O)c1ccc(OCC(O)Cn2c3ccccc3c3ccccc32)cc1 (stereo not given)	-7.1%	10.1%
O=C(CSc1ncccn1)N1CCC(Cc2ccccc2)CC1	?	4.8%
O=C(N=C1SC2CS(=O)(=O)CC2N1Cc1ccccc1Cl)C1CC1 (stereo not given)	-8.6%	-5.8%
C/C(=N\OCc1ccccc1C#N)c1cc2ccccc2o1	3.5%	3.5%
O=C(Cn1cc(C(F)(F)F)cc(Cl)c1=O)NCc1ccccc1	5.4%	-0.1%
CCOc1ccccc1NC(=O)C1CCCN(C(=O)NCc2ccccc2)C1 (stereo not given)	-18.1%	-3.9%
CCc1c(C(=O)Nc2ccccc2)c(C)[nH]c(=S)c1C#N	0.0%	12.4%
CCOc1ccccc1Oc1c(C)oc2cc(OC(=O)c3ccco3)ccc2c1=O	-18.2%	8.1%
CCc1nnc(NC(=O)C2CC(=O)N(Cc3ccccc3)C2)s1 (stereo not given)	22.1%	15.3%
Cc1cccc(CSC2=NN3CCCC(=O)N=C3S2)c1	?	-10.0%
COCCCNC(=O)Cn1nnc(-c2ccc(NC(=O)c3ccc(F)cc3)cc2)n1	-16.0%	1.2%
CC(=O)NC1CC2CCCC(C1)N2Cc1ccc(C)cc1 (stereo not given)	-2.1%	0.0%
COC/C=C/C1=CC2=CC(=O)C(C)(OC(=O)c3cnc4ccccc4n3)C(=O)C2=CN1CCCCO (stereo not given)	-14.5%	-22.1%
CC(C)S(=O)(=O)C/C(N)=N/OS(=O)(=O)c1ccc(Cl)cc1	-2.4%	-5.4%
COc1ccc2nc(NC(=O)CSc3nnc(N)s3)sc2c1	-3.3%	1.7%
COC(=O)C1C(=O)N2CCCSC2=C(C#N)C1c1cccs1 (stereo not given)	5.2%	-4.2%
COc1ccc(OC)c(NC(=O)CSc2nncc3ccccc23)c1	-28.3%	-1.7%
CCn1nc(C(=O)OCC(=O)Nc2nc(-c3ccc(OC)cc3)cs2)c2ccccc2c1=O	?	-9.3%
CC(=O)N1CCN(C(=O)CCc2cc(C(C)(C)C)c(O)c(C(C)(C)C)c2)CC1	-25.9%	1.9%
Cc1ccc(C)c(OCC(=O)N2CCc3ccccc3C2)c1	-20.2%	-6.8%
COc1ccc(NC(=O)C(=O)Nc2cccc3cccnc23)c(OC)c1	-25.2%	16.7%
CC(NC(=O)COc1ccc(Oc2ccccc2)cc1)C(=O)O (stereo not given)	20.1%	-9.8%
CC(=O)Nc1ccc2nc(NC(=O)COc3cccc(C)c3)sc2c1	2.0%	-6.5%
Cc1nc(-c2ccc(NC(=O)c3ccccc3)cc2)cs1	18.4µM*	-2.6%
Cn1cnnc1SCc1ccc(C(=O)O)cc1	-2.1%	-4.2%
COC(=O)c1c(C(=O)OC)c(-c2cccc(C)c2)n2c1CS(=O)(=O)C2	-19.0%	0.0%
COc1ccc(Br)c(C(=O)NCCC(C)C)c1	-17.9%	4.4%
CCCN1CCN(C2CCCCC2NS(=O)(=O)c2ccccc2)CC1 (stereo not given)	-4.8%	4.0%
Cc1c(NC(=O)c2ccccc2)cccc1[N+](=O)[O-]	-0.6%	-0.8%
Cc1cc(C)c(C)c(S(=O)(=O)NCC(=O)O)c1C	0.0%	-2.9%
COC(=O)Nc1[nH]ncc1[N+](=O)[O-]	-6.0%	8.0%
COC(=O)C(NS(=O)(=O)c1ccc(F)cc1)c1ccccc1 (stereo not given)	-24.2%	10.9%
O=C1c2cccc3cccc(c23)C(=O)N1c1nncs1	5.4%	-14.9%
CCN(CC(=O)Nc1cccc(OC)c1)CC(=O)Nc1ccc(Br)c(C)c1	?	-10.4%
CCOC(=O)c1cccc(NC(=O)c2cc(C)nn2-c2ccccc2)c1	-16.9%	0.5%
CC1(C)CC(=O)N(c2ccc(C#N)cc2)C(=O)C1	-4.8%	1.1%
COc1ccc2cc(CN(CC3CCCO3)C(=O)Nc3ccccc3)c(=O)[nH]c2c1 (stereo not given)	?	-2.4%
COc1ccc(-c2cc(C(F)(F)F)nc(N)n2)cc1	13.2%	-9.5%

Reprinted at random: 3 entries already listed.
SMILES	DT40 TDP1 CPT	FEN1 inhibitor
CCN(CC(=O)Nc1cccc(OC)c1)CC(=O)Nc1ccc(Br)c(C)c1	?	-10.4%
CCOC(=O)c1cccc(NC(=O)c2cc(C)nn2-c2ccccc2)c1	-16.9%	0.5%
CC1(C)CC(=O)N(c2ccc(C#N)cc2)C(=O)C1	-4.8%	1.1%

Later entries.
SMILES	DT40 TDP1 CPT	FEN1 inhibitor
N/C(=N\OC(=O)c1cccc(Cn2cc(C(F)(F)F)ccc2=O)c1)c1ccccc1	-3.7%	5.9%
COc1ccccc1C(=O)NNC(=O)c1ccccc1Br	-6.8%	-1.5%
C=CCn1c(O)c(C(CC)=NCc2cccnc2)c(=O)[nH]c1=O	2.6%	9.0%
CCC(C)c1ccc(NC(=O)c2[nH]c(C)c(C(C)=O)c2C)cc1 (stereo not given)	?	-21.6%
Cn1cnc([N+](=O)[O-])c1Sc1ncccc1N	-35.4%	-4.5%
COc1ccc2oc(=O)c(C(=O)O)cc2c1	-20.4%	4.3%
Fc1cccc(COc2ccccc2CNc2ccccc2)c1	-14.3%	-11.7%
COc1ccccc1C(=O)Nc1c(-c2ccccc2)nc2ccccn12	23.1µM*	-6.2%
Cc1ccc(F)c(CNC(=O)C2CCC(=O)N(Cc3ccccn3)C2)c1F (stereo not given)	?	-2.2%
COc1ccc(C(=O)COC(=O)[C@H](C)Nc2ccc(C(F)(F)F)cc2[N+](=O)[O-])cc1	4.3%	0.8%
COc1ccc(CNCc2cn(-c3cccc(F)c3)nc2-c2ccc(C)o2)cc1	?	-2.3%
CCS(=O)(=O)NCC(c1cccnc1)N1CCN(c2ccccc2)CC1 (stereo not given)	-19.0%	12.6%
COc1cc(NC(=O)C(C)Oc2ccccc2)ccc1NC(=O)COc1ccccc1 (stereo not given)	?	-4.1%
NC(=O)C1CCCN(CC(=O)N2CCN(c3ccccc3)CC2)C1 (stereo not given)	-9.0%	5.0%
CCC(C(=O)NCC1CCCO1)n1nc(C)c2sc3ccccc3c2c1=O (stereo not given)	?	-1.3%
COc1ccc(NC(=O)CNC(=O)c2ccc([N+](=O)[O-])cc2)cc1	6.6%	1.3%
CCOC(=O)c1c(S(=O)(=O)N2CCCC(C(=O)Nc3cccc(C)n3)C2)c(C)n(C)c1C (stereo not given)	?	24.1%&-1.3%
COCCn1c(SCC(=O)c2ccc3c(c2)OCCO3)nnc1C(C)C	-2.7%	0.4%
CCOc1ccccc1NC(=O)CSc1nc(=O)n(Cc2ccccn2)c2c1CCC2	-3.9%	5.5%
CCCCC(=O)Nc1nnc(-c2ccc(OC)cc2)s1	-17.1%	8.6%
COc1cc(NC(=O)COc2ccc(Cl)cc2)ccc1-c1cc2ccccc2oc1=O	4.11µM*	0.7%
COc1ccc(C)cc1NC(=O)CCNS(=O)(=O)c1cccc(C(F)(F)F)c1	?	-0.2%
COc1ccc(CC(=O)Nc2ccc(S(=O)(=O)Nc3cc(C)on3)cc2)cc1	1.1%	9.5%
Cc1cccc(OCC(=O)N2CCN(C(=O)CCC3CCCC3)CC2)c1	?	7.4%
COC(=O)C1C(=O)C2=C(CC1C)NC(C)=C(C(=O)OC1CCCC1)C2c1ccc(N(C)C)cc1 (stereo not given)	?	-10.8%
Cc1c(Cl)cccc1N(CC(=O)NC1CCCCC1)S(C)(=O)=O	-7.2%	-10.6%
CCC1(c2ccccc2)NC(=O)N(CC(=O)Nc2cc(S(=O)(=O)N3CCOCC3)ccc2OC(C)C)C1=O (stereo not given)	-22.4%	5.1%

Not all compounds are listed; most or all hits stand in other tables.
